Source: PubChem BioAssay (National Center for Advancing Translational Sciences (NCATS))
AmpC nodet inh: AmpC beta-lactamase inhibition, detergent-free assay. Potency, µM (series often up to 28.7 µM), without a hit: at the top dose activity change, negative = inhibition. P00811. AmpC nitrocefin hydrolysis, absorbance 480 nm, no detergent; potencies from a single point are estimates. 1.8% of 71,000 active; active = falling curve, for most hits resting on a single point; inconclusive = weak or doubtful change; inactive = flat or rising curve; also: % of control where 0% means no effect; about half of the hits show no inhibition at the top dose; a quarter of the inactives give rising signals
Target sequence (P00811 whole entry, looked up): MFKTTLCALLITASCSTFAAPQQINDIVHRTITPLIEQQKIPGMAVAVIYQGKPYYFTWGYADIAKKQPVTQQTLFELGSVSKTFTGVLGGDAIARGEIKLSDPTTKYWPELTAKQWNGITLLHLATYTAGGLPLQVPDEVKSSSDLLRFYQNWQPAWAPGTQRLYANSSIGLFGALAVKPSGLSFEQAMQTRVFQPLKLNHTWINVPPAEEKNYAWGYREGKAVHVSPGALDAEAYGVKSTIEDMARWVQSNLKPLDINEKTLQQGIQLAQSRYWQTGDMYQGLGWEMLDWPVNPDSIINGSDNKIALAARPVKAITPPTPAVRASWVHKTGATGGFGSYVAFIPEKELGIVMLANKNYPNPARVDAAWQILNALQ
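Enzyme, pH 7.0 phosphate. Compound titrations were pre-incubated with AmpC for 15 min at room temperature before nitrocefin (stock 800 uM) addition; product formation was recorded at 480 nm every 20 s for 4 min.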
* marks the source's active call; other numbers are inactive results; ? = inconclusive; [ ] = dose if it differs, or a comment. Potency is read from the fitted curve at half-maximal effect. The list is partial (hit frequency here may not be typical).

molecule	AmpC nodet inh
Cc1cccc(-c2nc(CS(=O)CC(=O)NCCCSC3CCCCC3)c(C)o2)c1 (centres undefined)	118%
COc1ccc(N2CCN(C(=O)CNC(=O)Cn3c(C)cc4ccccc4c3=O)CC2)cc1	25%
O=C(OCCN1C(=O)CCC1=O)c1ccc(S(=O)(=O)N2CCCCC2)cc1	35%
Cc1cc(C(=O)Nc2sc(C)c(C)c2C#N)c(C)o1	-8%
CNS(=O)(=O)c1cccc2cccnc12	-2%
Cc1ccc(C(=O)Nc2ccc3c(c2)OCO3)cc1S(=O)(=O)N1CCCC1	-12%
O=C(CSc1nc2ccccc2s1)N1CCN(C(=O)c2ccco2)CC1	48%
Cn1c(=O)[nH]c(=O)c2c1nc1n2CCCS1	-9%
C[C@@H](N)/C(N)=N/O	4%[5.75 µM]
CCOC(=O)C1=C(C)Nc2nc(C)nn2C1c1cc(OC)ccc1OC (centres undefined)	-7%
Cn1c(CNc2nc(-c3ccccc3)cs2)nnc1SCC(=O)OC1CCCCC1	78%
CN(C)/C=c1\sc2c(C#N)cc(C(=O)c3ccc(Br)cc3)n2c1=O	37%
O=C(O)CC/C=C\CC[C@H]1[C@@H](N2CCCCC2)[C@@H](O)C[C@@H]1OCc1ccc(-c2ccccc2)cc1	153%
Cc1cc(NC(=O)CSc2nnc(-c3ccc(Cl)s3)o2)no1	?
Cc1nc2c3c(-c4ccccc4)nc(N4CCOCC4)nc3nn2c(C)c1CCC(=O)O	46%
Cc1ccc(-c2cc(-c3ccccc3Cl)[nH]n2)c(O)c1	-2%
CC1C2CC(C(CN(C)C)/C2=N/O)C1(C)C (centres undefined)	-7%
CC(C)(C)[Si](C)(C)c1c2c(nc3ccc(OCc4ccccc4)cc13)-c1cccc(=O)n1C2	18%
CC(C)C(=O)Nc1ccc(C(=O)NCc2cccnc2)cc1	-6%
O=C(O)/C=C\c1c2ccc(=O)c(O)c-2oc2c(O)c(O)ccc12	1.6µM*
N#CC1=C2SCN(Cc3ccco3)CN2C(=O)CC1c1ccc(Cl)cc1 (centres undefined)	-11%
CCCn1c(-c2ccc(F)cc2)nc2c(NCCCN(C)C)nc(C)nc21	26%
CCn1c(SCC(=O)Nc2nnc(C)s2)nnc1-c1ccncc1	-2%
Cc1ccc(S(=O)(=O)N2CCN(S(C)(=O)=O)C2)cc1	-4%
COc1ccc(CCNC(=O)CN(C2CCCCC2)S(C)(=O)=O)cc1OC	-8%
O=C(CSc1nc2ccccc2c(=O)[nH]1)N1CCOCC1	-2%
CC(C)(C)NC(=O)NC(=O)COc1ccccc1C#N	-14%
N#CC1=C(N)C(C#N)(C#N)C2(CCC3(CC2)OCCO3)C2CC3(CC=C12)OCCO3 (centres undefined)	8%
CCCC(=O)c1cc(F)c(N2CCN(S(=O)(=O)c3ccccc3)CC2)cc1C	17%
COCCNS(=O)(=O)c1cc(F)ccc1OC	-3%
COc1cccc(Oc2cnc(N)nc2-c2ccc(OC)cc2O)c1	42%
Cc1cc(N(C)C)nc(SC(C)C)n1	0%
CCOc1cc(C)c(C(C)C)cc1S(=O)(=O)N1CC(C)OC(C)C1 (centres undefined)	68%
COc1ccc(C)cc1-n1nnnc1SCc1cc(=O)n2cc(C)ccc2n1	48%
O=c1ccc2ccc(O)c(O)c2o1	-14%
CCCCn1c(SCc2ccc(Cl)cc2)nc2c1c(=O)[nH]c(=O)n2C	25%
COc1ccccc1CNc1ncnc2ccc(-c3ccc(C(=O)N(C)C)cc3)cc12	109%
CSc1ccc(S(=O)(=O)NCc2ccc(Cl)cc2)cc1	-12%
CCCn1c(=NC(=O)c2ccc3c(c2)OCO3)c(C#N)cc2c(=O)n3cccc(C)c3nc21	36%
Nc1ccc(CN2CCN(c3ccc4ccccc4n3)CC2)cc1	-6%
O=C(Cc1ccc(Cl)c(Cl)c1)OCC(=O)c1ccc[nH]1	-10%
COc1ccc(OC)c(S(=O)(=O)N(C)CC(=O)N2CCN(c3cccc(Cl)c3)CC2)c1	105%
O=C(Nc1ccc(N2CCN(C(=O)c3ccc(Cl)cc3)CC2)cc1)c1cccnc1	53%
COC(=O)CCSCC(=O)Nc1nnc(C)s1	1%
CCOCCCNC(=O)C1CCCN1S(=O)(=O)c1ccc(Cl)cc1 (centres undefined)	10%
CCOc1cccc(C2C(C(=O)c3ccc(C)o3)=C(O)C(=O)N2Cc2ccncc2)c1 (centres undefined)	-2%
COc1ccccc1Oc1coc2cc(OC(=O)N3CCOCC3)ccc2c1=O	41%
CCN(CC)C(=O)COc1ccc(CC(=O)O)cc1OC	-2%
CCOC(=O)c1cc2occc2n1CC(=O)N1CCOCC1	4%
CCOC(=O)N1CCC(NC(=O)CCC(=O)N2CC(C)Oc3ccc(Cl)cc32)CC1 (centres undefined)	96%

Another view of some results above.
O=C(OCCN1C(=O)CCC1=O)c1ccc(S(=O)(=O)N2CCCCC2)cc1
  AmpC nodet inh: 35%

Cc1cc(C(=O)Nc2sc(C)c(C)c2C#N)c(C)o1
  AmpC nodet inh: -8%

(listing goes on)
molecule	AmpC nodet inh
C[C@@H](Cc1ccc(O)cc1)NC[C@@H](O)c1cc(O)cc(O)c1	-10%[12.8 µM]
COc1cc(OC)cc(-c2nnc(Nc3nc4c(F)cccc4s3)o2)c1	8%
CCOCC(=O)Nc1c(C(=O)Nc2ccc(OC)cc2OC)oc2ccccc12	73%
CC1(C)CC(NC(=O)CC2CCCCC2)CC(C)(C)N1	-23%
Nc1cc(S(=O)(=O)O)cc2ccc(S(=O)(=O)O)cc12	-3%[5.75 µM]
Cc1cc(N2CCN(C)CC2)nc2ccc(NC(=O)c3ccc(Br)o3)cc12	89%
CC1CCCCN1c1nc(-c2ccncc2)nc2ccccc12 (centres undefined)	68%
Cn1c(COc2ccccc2)nnc1SCC(=O)Nc1ccc(N2CCOCC2)c(Cl)c1	31%
COc1cc2c(cc1OC)CN(Cc1cccs1)CC2	6%
CCCC1c2c(ccc3ccccc23)Oc2ccc3ccccc3c21	-4%[5.75 µM]

New compounds follow:
structure,AmpC nodet inh
Cn1c(=O)cc(OCCCC(=O)Nc2cccnc2)c2ccccc21,17%
Cc1ccc(NC(=O)c2cc(S(=O)(=O)N3CCC4(CC3)OCCO4)ccc2F)cc1,66%
Cc1cc(N2CCC(C(=O)Nc3ccc(F)cc3)CC2)nc(-c2ccccc2)n1,74%
COCCCNC(=O)c1ccccc1SC,2%
CC1Cc2ccccc2N1S(=O)(=O)c1cccc(C(=O)c2nccn2C)c1 (centres undefined),44%
COc1ccc(C(=O)Nc2ccc(Cl)c(Cl)c2)c(OC)n1,?
CCc1cccc(CC)c1N(COC)C(=O)Cn1c(C(C)O)nc2ccccc21 (centres undefined),137%
O=C(O)CSc1nnc(Cc2ccccc2)n1Cc1ccccc1,-2%
O=C(NCCCN1CCCC1=O)c1cccnc1,1%
Cc1nnc(SCc2cccs2)[nH]c1=O,-9%
Cc1c(C#N)c2ncn(CCCN(C)C)c(=O)c2n1-c1ccccc1,1%
CCN1C(=O)c2cccc3c(S(=O)(=O)Nc4ncccc4C)ccc1c23,-3%
Cc1ccc(N2CC(C(=O)N3CCc4ccccc4C3)CC2=O)cc1 (centres undefined),41%
CCOC(=O)C1CCN(C(c2cccs2)c2sc3nc(C)nn3c2O)CC1 (centres undefined),-10%
COc1cccc(C(=O)N(c2ccc(OC)cc2OC)C2C=CS(=O)(=O)C2)c1 (centres undefined),18%
COC(=O)c1ccccc1NC(=O)c1ccccc1NS(C)(=O)=O,13%
Cc1nc(=O)c(-c2ccccc2)c(C)n1-c1ccc(C(=O)O)cc1,2%
COc1ccccc1CCNC(=O)c1cnn2c(C(F)F)cc(C)nc12,38%
CCN(CC)S(=O)(=O)c1ccc2c(c1)c(=O)c(C(=O)NCCCN(C)c1ccccc1)cn2C,149%
Cc1c(C(=O)Nc2ccc(F)cc2)oc2ccc(S(=O)(=O)N3CCC4(CC3)OCCO4)cc12,65%
CCCCOC(=O)c1ccc(NC(=O)c2ocnc2C)cc1,55%
COC(=O)Cn1cnc2c(nnn2Cc2ccc(Cl)cc2)c1=O,-1%
O=C(CN(Cc1ccco1)S(=O)(=O)c1cccs1)Nc1ccccc1C(F)(F)F,6%
COCCNC(=O)CN(c1cccc(OC)c1)S(=O)(=O)c1ccc(C)cc1,39%
Cc1ccc(-n2c(SCC(=O)NCc3cccs3)nnc2-c2ccoc2C)cc1,43%
O=C(CCc1nc(-c2ccccc2F)no1)Nc1ccc(Oc2ccccc2)cc1,?
Cc1ccccc1-c1ccc2ncnc(N(C)C)c2c1,77%
CC(CCc1ccccc1)NC(=O)CN1CCOc2ccccc21 (centres undefined),69%
COc1ccccc1NC(=O)C1CCCCN1S(=O)(=O)c1ccc(F)cc1 (centres undefined),3%
CCOC(=O)C1=C(C)Nc2nc(SCc3cccnc3)nn2C1c1ccc(OC)cc1 (centres undefined),41%
Cc1cc(C(=O)Nc2ccccc2C(F)(F)F)no1,8%
O=c1[nH]c2cc3c(cc2cc1C(c1nnnn1CC1CCCO1)N1CCCCCC1)OCO3 (centres undefined),24%
O=C(O)CCCC(=O)Nc1ccccc1C(=O)O,-8%
CCSc1ccccc1C(=O)NCc1ccc(S(N)(=O)=O)cc1,-11%
COc1ccc(C2=NCC(CSc3nnnn3C)S2)cc1 (centres undefined),22%
C=CCn1c(SCC(=O)Nc2ccc3c(c2)OCCO3)nnc1-c1ccccn1,19%
CCCCN1c2cc(C)c(O)cc2C(C(=O)OCC)C1C (centres undefined),7%
O=C(O)CSc1cc(-c2ccccc2)nc2ccccc12,4%[5.75 µM]
COc1cccc(CNC2CCCC2)c1,-8%
Cc1ccc(NC(=O)CSCC(N)=O)cc1C,31%
O=C(c1ccco1)N1CCN(C2CCCC2)CC1,-4%
CC1CCCCN1C(=O)CSc1nnc(-c2ccc(Cl)s2)o1 (centres undefined),32%
COc1ccccc1CN(Cc1cc2cc(C)ccc2[nH]c1=O)Cc1nnnn1Cc1ccco1,19%
NCCNS(=O)(=O)c1cccc2c(Cl)cccc12,19%
Cn1c(=O)n(CC(=O)Nc2cccnc2)c2ccccc21,-5%
CCOC(=O)c1cc(CN2CCOCC2)oc1-c1ccccc1,45%
O=C(CSc1nc2cc(Cl)ccc2s1)NC(=O)NCc1ccco1,?
CC1CCCCC1NC(=O)c1ccc(CNc2c(N3CCCC3)c(=O)c2=O)cc1 (centres undefined),-2%

Filtered by structure: those above containing an aryl thioether with sulfur outside any ring.
structure,AmpC nodet inh
O=C(CSc1nc2ccccc2s1)N1CCN(C(=O)c2ccco2)CC1,48%
Cn1c(CNc2nc(-c3ccccc3)cs2)nnc1SCC(=O)OC1CCCCC1,78%
Cc1cc(NC(=O)CSc2nnc(-c3ccc(Cl)s3)o2)no1,?
CCn1c(SCC(=O)Nc2nnc(C)s2)nnc1-c1ccncc1,-2%
O=C(CSc1nc2ccccc2c(=O)[nH]1)N1CCOCC1,-2%
Cc1cc(N(C)C)nc(SC(C)C)n1,0%
COc1ccc(C)cc1-n1nnnc1SCc1cc(=O)n2cc(C)ccc2n1,48%
CCCCn1c(SCc2ccc(Cl)cc2)nc2c1c(=O)[nH]c(=O)n2C,25%
CSc1ccc(S(=O)(=O)NCc2ccc(Cl)cc2)cc1,-12%
Cn1c(COc2ccccc2)nnc1SCC(=O)Nc1ccc(N2CCOCC2)c(Cl)c1,31%
COCCCNC(=O)c1ccccc1SC,2%
O=C(O)CSc1nnc(Cc2ccccc2)n1Cc1ccccc1,-2%
Cc1nnc(SCc2cccs2)[nH]c1=O,-9%
Cc1ccc(-n2c(SCC(=O)NCc3cccs3)nnc2-c2ccoc2C)cc1,43%
CCOC(=O)C1=C(C)Nc2nc(SCc3cccnc3)nn2C1c1ccc(OC)cc1 (centres undefined),41%
CCSc1ccccc1C(=O)NCc1ccc(S(N)(=O)=O)cc1,-11%
COc1ccc(C2=NCC(CSc3nnnn3C)S2)cc1 (centres undefined),22%
C=CCn1c(SCC(=O)Nc2ccc3c(c2)OCCO3)nnc1-c1ccccn1,19%
O=C(O)CSc1cc(-c2ccccc2)nc2ccccc12,4%[5.75 µM]
CC1CCCCN1C(=O)CSc1nnc(-c2ccc(Cl)s2)o1 (centres undefined),32%
O=C(CSc1nc2cc(Cl)ccc2s1)NC(=O)NCc1ccco1,?
